Screening results (PubChem)
PKD1 kinase inh: inhibitors of human PKD1 kinase; Q15139; PKD1 kinase fluorescence polarization assay; inhibition, %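 (about 10 µM by stock and volumes)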; hit rate 0.056% among 200,000;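 active = inhibition of 50% or more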;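 note: controls were vehicle for no effect and a reference inhibitor for full effect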
Target sequence (Q15139 whole entry, looked up): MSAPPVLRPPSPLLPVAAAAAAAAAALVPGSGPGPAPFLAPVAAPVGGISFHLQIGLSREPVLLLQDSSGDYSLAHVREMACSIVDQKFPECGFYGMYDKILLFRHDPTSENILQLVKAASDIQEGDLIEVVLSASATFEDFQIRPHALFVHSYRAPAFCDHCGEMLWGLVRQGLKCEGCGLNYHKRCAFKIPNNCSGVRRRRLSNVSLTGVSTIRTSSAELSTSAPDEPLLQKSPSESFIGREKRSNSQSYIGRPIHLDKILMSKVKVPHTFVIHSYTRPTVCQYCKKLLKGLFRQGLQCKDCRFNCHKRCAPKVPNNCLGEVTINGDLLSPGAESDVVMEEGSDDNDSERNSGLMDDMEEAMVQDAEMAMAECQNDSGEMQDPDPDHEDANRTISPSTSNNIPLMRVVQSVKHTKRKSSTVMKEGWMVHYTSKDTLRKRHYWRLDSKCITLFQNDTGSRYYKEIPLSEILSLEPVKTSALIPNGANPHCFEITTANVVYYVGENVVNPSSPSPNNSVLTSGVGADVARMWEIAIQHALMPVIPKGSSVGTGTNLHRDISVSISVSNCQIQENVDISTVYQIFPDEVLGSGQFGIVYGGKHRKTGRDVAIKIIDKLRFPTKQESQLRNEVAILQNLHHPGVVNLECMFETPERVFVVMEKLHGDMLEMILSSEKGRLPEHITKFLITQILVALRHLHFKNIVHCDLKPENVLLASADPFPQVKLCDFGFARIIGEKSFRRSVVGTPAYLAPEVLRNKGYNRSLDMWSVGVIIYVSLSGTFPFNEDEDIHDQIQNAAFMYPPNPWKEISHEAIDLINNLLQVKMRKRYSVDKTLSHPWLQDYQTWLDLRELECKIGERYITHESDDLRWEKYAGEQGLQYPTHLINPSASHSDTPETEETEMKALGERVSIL
HSV augment: HSV replication enhancement | hit rate 0.005% among 220,000 | maximum fold increase | HSV replication augmentation in cells, fold increase | AID 1956;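 active = peak rise of 1.5-fold or more in the series; tested in PC3 cells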;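 note: first round at 10 µM; read as green reporter fluorescence; hits show the peak of a series up to 25 µM; 1 = signal of infected wells without compound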
RGS16-Gao: modulates binding between human RGS16 and Galphao; AID 1441; binding response (% of control), % at 10 µM; bead-based flow cytometry RGS16-Galphao binding, fluorescence; actives lie on both sides; O15492+P09471; hit rate 0.38% among 220,000;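 active = below 25% or above 175%, edge rows of some plates excepted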;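 note: Galphao activated by GDP with aluminum fluoride before binding; 100% = wells without compound and 0% = beads without RGS; some results beyond the cut were filed as inactive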
INS promoter inh: TRM-6 insulin promoter activity inhibition | TRM-6 cells (human fetal islet line), insulin promoter-eGFP reporter, imaging; reporter expression induced with tamoxifen | inhibition, % at 2 µM | hit rate 0.9% among 130,000;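 active = inhibition above the mean plus 3 SD, with well images judged a real hit on visual review, cut at about 60% in these data, passing the limit was not always enough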
GALR2 agonist: agonists of human galanin receptor 2 (GALR2); activation, %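 (tested at 5 µM)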; GALR2-expressing cells, agonist activation read-out; AID 803; hit rate 0.48% among 140,000;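 active = above mean plus 3 SD of all compounds, about 5% in these data, not always enough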;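 note: 0% = vehicle buffer wells and 100% = reference agonist at full effect; tested in CHO reporter cells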
INS promoter inh cell count: also measured in INS promoter inh; calls as there; normalized cell count, %; measured here: cell count, toxicity; reference of the scale not given here;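 cells exposed to compound for 48 h; stained nuclei by imaging scaled within each plate; lower means fewer cells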
HSV augment primary fold: also measured in HSV augment; calls as there; fold increase; compound at 10 µM; measured here: primary screen fold increase 10 uM; tested in PC3 cells;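 GFP signal in the first replicate; 1 = infected wells without compound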
Active calls of the source: *; i = inactive; · = not tested or not shown; & = joins results of further samples.

SMILES	PKD1 kinase inh	HSV augment	HSV augment primary fold	RGS16-Gao	INS promoter inh	INS promoter inh cell count	GALR2 agonist
COc1ccccc1NC(=O)C(=O)N1N=C(C(C)C)CC1(O)C(F)(F)F (centres undefined)	-5	i	1	106	10	113	-2.0
C(=N\Nc1nc(N2CCCC2)nc(N2CCCC2)n1)/c1ccncc1	-1	i	0.96	99	-58	47	·
CCOP(=O)(OCC)c1nc(-c2ccccc2)oc1NCc1ccccc1	3	i	0.85	105	-17	132	-1.4
CCc1cccc(NC(=O)CCCSc2nc3ccccc3[nH]2)c1	5	i	0.91	116	-77	88	-0.6
O=C1c2oc3ccccc3c(=O)c2C(c2cccc(Br)c2)N1Cc1ccco1 (centres undefined)	2	i	1	101	45	115	-1.9
Cc1ccc(NC(=O)c2ccc(CSc3ncnc4nc[nH]c34)cc2)c(C)c1	-4	i	0.85	99	4	105	-1.6
COCCn1c(SCC(=O)NCCc2ccccc2)nnc1-c1ccco1	3	i	0.92	105	·	·	0.4
CCc1nnc(NC(=O)c2ccc(-c3ccc([N+](=O)[O-])cc3Cl)o2)s1	-3	i	0.89	103	0	119	·
Fc1ccc(-c2nc3c(-c4ccccc4)cnn3cc2CCN2CCOCC2)cc1	5	i	0.94	89	·	·	·
N=c1c2c(-c3ccccc3)c(-c3ccccc3)n(Cc3ccco3)c2ncn1Cc1ccco1	2	i	0.66	104	-89	100	5.2*
O=C(CN1CCOCC1)NC1C2CC3CC(C2)CC1C3 (centres undefined)	-4	i	1.1	100	13	78	-0.5
CCn1nnnc1SCC(=O)NNC(=O)C1CCCCC1	-2	i	0.85	101	-36	107	1.1
O=C(Cc1csc(-c2ccccc2)n1)Nc1ccc(C(F)(F)F)cc1	-4	i	0.93	103	0	121	0.1
COc1cc(/C=C2/SC(=S)N(CC(=O)Nc3cccnc3)C2=O)cc(OC)c1OC	3	i	1.1	86	54	70	-1.0
COc1ccc(NC(=S)N2CCCC(c3nc4ccc(C)cc4[nH]3)C2)cc1 (centres undefined)	-3	i	0.99	107	·	·	·

A draw from above in order of length of the SMILES, highest first:
SMILES	PKD1 kinase inh	HSV augment	HSV augment primary fold	RGS16-Gao	INS promoter inh	INS promoter inh cell count	GALR2 agonist
N=c1c2c(-c3ccccc3)c(-c3ccccc3)n(Cc3ccco3)c2ncn1Cc1ccco1	2	i	0.66	104	-89	100	5.2*
COc1cc(/C=C2/SC(=S)N(CC(=O)Nc3cccnc3)C2=O)cc(OC)c1OC	3	i	1.1	86	54	70	-1.0
CCc1nnc(NC(=O)c2ccc(-c3ccc([N+](=O)[O-])cc3Cl)o2)s1	-3	i	0.89	103	0	119	·
Cc1ccc(NC(=O)c2ccc(CSc3ncnc4nc[nH]c34)cc2)c(C)c1	-4	i	0.85	99	4	105	-1.6
O=C1c2oc3ccccc3c(=O)c2C(c2cccc(Br)c2)N1Cc1ccco1 (centres undefined)	2	i	1	101	45	115	-1.9
Fc1ccc(-c2nc3c(-c4ccccc4)cnn3cc2CCN2CCOCC2)cc1	5	i	0.94	89	·	·	·
O=C(Cc1csc(-c2ccccc2)n1)Nc1ccc(C(F)(F)F)cc1	-4	i	0.93	103	0	121	0.1
C(=N\Nc1nc(N2CCCC2)nc(N2CCCC2)n1)/c1ccncc1	-1	i	0.96	99	-58	47	·
CCOP(=O)(OCC)c1nc(-c2ccccc2)oc1NCc1ccccc1	3	i	0.85	105	-17	132	-1.4
COCCn1c(SCC(=O)NCCc2ccccc2)nnc1-c1ccco1	3	i	0.92	105	·	·	0.4
CCc1cccc(NC(=O)CCCSc2nc3ccccc3[nH]2)c1	5	i	0.91	116	-77	88	-0.6
O=C(CN1CCOCC1)NC1C2CC3CC(C2)CC1C3 (centres undefined)	-4	i	1.1	100	13	78	-0.5
CCn1nnnc1SCC(=O)NNC(=O)C1CCCCC1	-2	i	0.85	101	-36	107	1.1

New compounds follow:
SMILES	PKD1 kinase inh	HSV augment	HSV augment primary fold	RGS16-Gao	INS promoter inh	INS promoter inh cell count	GALR2 agonist
COc1ccc(CCCC(=O)NC2CCCCC2)cc1	1	i	1.2	104	0	122	0.6
FC(F)(F)c1cccc(Oc2cc(C(F)(F)F)nc(-c3ccccn3)n2)c1	2	i	0.86	106	7	80	-2.1
S=C(Nc1ccc2c(c1)OCO2)N1CCCC1	-7	i	1	93	·	·	·
Cc1nc2sc(-c3ccccc3)cc2c(=O)n1N	·	i	1.1	101	·	·	·
Cc1ccc(C(=O)COC(=O)c2cnccn2)cc1[N+](=O)[O-]	-3	i	0.89	104	·	·	·
COc1ccc(-n2c(COc3ccc4ccccc4c3)nnc2SCC(=O)NCc2ccco2)cc1	3	i	1.4	100	·	·	-0.3
CCCC(=O)n1nc(-c2ccccc2)nc1N	-4	i	0.86	15*	28	123	0.6
COC(=O)c1ccc(C(=O)OC)c(-n2c(=O)c3ccccc3c3ccccc3c2=O)c1	-1	i	0.87	101	-24	136	-0.7
CCOc1ccccc1NC(=O)C1CCN(c2ccc(S(=O)(=O)N3CCCC3)cc2)CC1	-3	i	0.81	102	·	·	-1.3
O=C(O)c1ccc2oc(SCC(=O)N3CCCCC3)nc2c1	-11	i	0.97	95	-12	147	-2.4
Cc1ccc(C2CC(c3cccc(NS(C)(=O)=O)c3)=NN2S(C)(=O)=O)cc1 (centres undefined)	4	i	1	101	-40	85	·
CC(C)(C)C(=O)C(Cl)C(=O)Nc1ccccc1 (centres undefined)	·	i	0.92	96	·	·	·
CSCCC(NC(=O)c1ccc([N+](=O)[O-])cc1Cl)C(=O)OCC(=O)N(C)C (centres undefined)	6	i	1.1	104	-34	73	-1.1
Cc1ccc(N(CC(O)Cn2c3ccccc3c3ccccc32)S(C)(=O)=O)cc1 (centres undefined)	2	i	0.82	103	40	73	-1.5
CN(C(=O)c1ccncc1)C1CCS(=O)(=O)C1 (centres undefined)	8	i	0.94	101	-7	179	-0.8
O=C(OCCN1CCOCC1)c1cccnc1	18&-1	i	0.91	98&103	53&-3	83&34	-2.4&-1.9
O=C(O)c1cccc(N2C(=O)c3cccc(Oc4ccc(Cl)cc4)c3C2=O)c1	-1	i	0.94	99	43	120	-1.6
CN(C)S(=O)(=O)c1ccc(-c2csnn2)s1	1	i	1.1	107	-6	94	-0.8
CCSc1nnc(Cc2cc(=O)[nH]c(=O)[nH]2)n1-c1ccc(F)cc1	4	i	0.97	102	·	·	-1.6
CCN1CCCC1CN(Cc1cc2ccc(C)c(C)c2[nH]c1=O)C(=O)Nc1ccccc1OC (centres undefined)	4	i	0.99	141	·	·	-1.7
CCOc1ccc(N2C(=O)C3C4C=CC(CC4)C3C2=O)c([N+](=O)[O-])c1 (centres undefined)	-2	i	1.1	92	·	·	-1.4
Nc1cc(N)nc(SCC(=O)Nc2ccc3c(c2)OCCCO3)n1	-5	i	1	81	·	·	-1.0
O=c1oc(-c2ccccc2)nc2ccsc12	1	i	0.92	95	·	·	-0.4
CCN(CC)CCN(C(=O)c1ccc(S(=O)(=O)N2CCCCC2)cc1)c1nc2cc3c(cc2s1)OCO3	-4	i	0.93	87	75*	89*	·
O=C(O)C1CC(=O)N(Cc2ccccc2)C1 (centres undefined)	-3	i	0.86	103	8	104	1.1
O=C(Nc1nncs1)C1COc2ccccc2O1 (centres undefined)	2	i	0.91	102	-25	125	-2.7
OCc1cn(-c2ccc(Cl)cc2)nn1	1	i	0.99	101	33	119	·
Cc1nc2ccccc2c(=O)n1NC(=O)/C=C/c1ccccc1Cl	-3	i	0.97	100	0	80	-1.5
O=C(O)c1ccc2c(c1)nnn2C1CCCCC1	-5	i	1.1	98	-18	118	-1.3
O=C(CCC1CCCC1)N1CCN(C(=O)c2ccco2)CC1	-3	i	0.96	98	14	59	-1.8
Cc1nc2c(C)cccc2cc1C(=O)N/N=C/c1ccc(C(=O)O)cc1	-9	i	0.99	102	·	·	·
CCN(CC(=O)Nc1ccc2c(c1)OCCO2)CC(=O)Nc1cc(C)on1	-7	i	0.89	103	·	·	-1.3
CCOC(=O)N/N=C/c1cn(Cc2ccc(Cl)cc2)c2ccccc12	10	i	1.1	104	-8	91	2.6
Cc1cc(C)cc(NC(=S)NCCCN2CCOCC2)c1	1	i	1.1	106	13	92	-0.3
Cc1c(C)n(C(=O)CSc2nncn2C)c2ccccc12	-9	i	0.89	34	-26	126	-1.3
COc1ccc2cc(-c3csc(-c4cccnc4)n3)ccc2c1	3	i	1.1	102	2	93	-0.8
CCNC(=O)C(=O)c1c(-c2ccccc2)[nH]c2ccccc12	-9	i	1	99	-7	86	·
O=C(NCCOc1ccccc1)c1ccc2c(c1)OCO2	-5	i	0.83	99	·	·	-0.7
CC(=O)N=c1sc2c3ccccc3ccc2n1C	3	i	0.84	93	·	·	-0.8
Cc1[nH]c2ccccc2c1/C=N/NC(=O)c1cc(-c2cccs2)[nH]n1	-10	i	0.58	97	-7	77	-0.8
COc1ccc(-c2nnco2)cc1OC	-17	i	0.63	111	22	79	-1.6
CN(C)CCn1nnc2c(=O)oc3ccccc3c21	-9	i	0.94	111	·	·	·
Cc1cccc(OCC(=O)Nc2nonc2NC(=O)COc2cccc(C)c2)c1	-1	i	0.64	39	-39	156	-1.2
O=C(COC(=O)c1cc(Cl)cc(Cl)c1)NCCN1C(=O)CSC1=O	8	i	1	106	·	·	-0.4
Cc1nc2ccccc2nc1OCc1ccc([N+](=O)[O-])cc1	-1	i	0.91	103	·	·	·
CC(=O)n1nc(-c2ccccc2)nc1NCc1cccs1	-7	i	0.97	108	·	·	·
Clc1ccc(OCCCCCN2CCCC2)c(Br)c1	-8	i	0.69	108	25	172	0.0
C=CCN1C(=O)N(c2ccc(F)cc2)C(=O)C1CC(=O)Nc1ccc(Cl)cc1 (centres undefined)	·	i	0.83	95	·	·	·
COCc1cc(=O)[nH]c(SCCS(=O)(=O)c2ccc(Cl)cc2Cl)n1	·	i	0.85	98	·	·	·
O=C(N/N=C\c1ccc(OC(=O)c2cccs2)cc1)c1ccc(Cl)cc1	-11	i	0.91	108	23	124	-1.1
COc1ccc(CNC(=O)/C=C/c2ccc(S(=O)(=O)N3CCOCC3)cc2)cc1	-2	i	0.96	103	·	·	·
CCOc1ccccc1N1CCN(C(=O)CCCN2C(=O)c3cccc4cccc(c34)C2=O)CC1	-8	i	0.91	101	-37	139	0.7
CN1CCN(CC(=O)N2CCn3c4c(c5cc(C6CCCCC6)ccc53)CCCC42)CC1 (centres undefined)	-6	i	0.57	197	-31	83	1.6
CCOC1(OCC)N=C(N)C2(C#N)C(c3cccc(OC)c3OC)C12C#N (centres undefined)	-4	i	0.99	101	·	·	-0.5
Cc1cccc(-n2ncc3c(NC(C)C)ncnc32)c1	0	i	0.92	101	·	·	-1.9
Cc1cc(C(=O)NCc2nc(-c3ccccc3)no2)ccc1[N+](=O)[O-]	2	i	1.1	104	18	84	·
CCN(CC)S(=O)(=O)c1cccc(C(=O)NCC(=O)OCC(=O)NCc2ccccc2)c1	-1	i	0.99	106	-31	92	-0.8
CCCNC(=S)NC1CC2CCCC(C1)N2CC(C)C (centres undefined)	-3	i	0.94	99	39	112	-1.7
NC(=O)c1c(N)sc2c1CCCCC2	-17	i	1.1	98	·	·	-1.3
Cc1ccc(SCCc2ccc(C)nc2)cc1	1	i	1.1	77	53	87	-1.5

(list continues)
SMILES	PKD1 kinase inh	HSV augment	HSV augment primary fold	RGS16-Gao	INS promoter inh	INS promoter inh cell count	GALR2 agonist
O=C(Nn1c(-c2ccncc2)nc2ccccc2c1=O)c1ccc([N+](=O)[O-])cc1Cl	-6	i	0.82	106	·	·	·
CCOc1ccc(NC(=O)CCNc2c(N3CCCC3)c(=O)c2=O)cc1	-2	i	1	102	27	125	-1.4
COc1ccccc1NC(=O)C1=C(C)Nc2ncnn2C1c1ccc(C)o1 (centres undefined)	0	i	0.94	103	13	131	2.0
N#C/C(=C(/O)Cc1ccccc1)P(=O)(c1ccccc1)c1ccccc1	·	i	1.2	109	·	·	·
CN(C)c1cc[n+](CC(=O)Nc2ccc([N+](=O)[O-])cc2Cl)cc1	-2	i	0.84	100	36	82	-2.5
O=C(N/N=C/c1ccncc1)c1cccc(N/N=C/c2ccncc2)c1	6	i	1.2	94	·	·	·
C=CCn1c(CCNC(=O)c2ccccc2F)nnc1SCC(=O)Nc1nc2ccccc2s1	4	i	0.89	92	-3	140	-0.8
